HTT prom inh – inhibitors of huntingtin promoter activity. 48,000 tested, 0.93% active. AID 1508623. Potency, µM (top dose mostly 57.5 µM), for inactives: top-dose activity change, negative = inhibition, most hits filed as inhibitors. HEK293 HTT promoter firefly luciferase reporter (activity 0% = vehicle and -100% = no light), 24 h; active = well fitted inhibition curve with a large enough effect; inconclusive = small, poorly fitted or top-dose-only effect; inactive = no such curve, though single readings can be large or run the other way; note: nearly all actives have a fitted effect of over 50% in size
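Luminescence was read after Dual-Glo reagent and a 10 min room-temperature incubation. Values were normalized to vehicle (0% activity) and zero RLU (-100% activity). Reporter HEK293 cells had been exposed to compounds (up to 57.5 uM final) for 24 h.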
PMP22 txn prim – PMP22 gene transcription modulation; 43,000 tested, 2% active; S16 Pmp22-F2sN Schwann cells (luciferase reporters placed in the Pmp22 gene), FLuc/NLuc coincidence luminescence, 24 h; Potency, µM (top dose mostly 57.5 µM), inactives show at the top dose activity change, negative = inhibition, most hits filed as inhibitors; AID 1508649; active = clear falling dose curves in both reporters; inconclusive = both reporters move, but less clearly or upward; inactive = either reporter flat; the % is the NLuc reporter signal; note: % is set by controls: 0 for no effect and ±100 for the full control effect; some results filed as inactive show a strong effect at the top dose
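Luminescent read-out of sequential FLuc and NLuc signals from a reporter embedded in the Pmp22 3' UTR of S16 Schwann cells, taken after 24 h compound exposure at 37C; compounds reducing both signals score as inhibitors of expression.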
Active calls of the source: *; ? = inconclusive; . = not tested or not shown; [ ] = dose if it differs, or a comment. Potency is the fitted concentration of half-maximal effect. Some of the compounds tested; the hit share may differ from the screen's.

Fields: HTT prom inh | PMP22 txn prim
1) Cc1ccccc1-c1nc(CS(=O)CC(=O)N2CCN(c3cc(Cl)ccc3C)CC2)c(C)o1 (configuration not stated)
    ? | ?
2) CCOC(=O)c1c(C)oc2ncnc(Nc3ccc(F)cc3Cl)c12
    -12% | 2%
3) Cc1ccc(S(=O)(=O)Nc2cc3c(cc2N2CCOCC2)n(C)c(=O)n3C)c(C)c1
    -14% | 15µM*
4) O=C(Cn1nc(Cc2cccnc2)c2ccccc2c1=O)N1CCN(c2ccc(F)cc2)CC1
    -20% | -9%
5) CCOC(=O)c1c(C)[nH]c(C)c1S(=O)(=O)N1CCC(C(=O)Nc2cc(C)ccn2)CC1
    -5% | 17%
6) Cc1ccc(CNC(=O)CSc2c(C(C)C)cnc3c2c(=O)n(C)c(=O)n3C)cc1
    -22% | -23%
7) C=CC[N+]1([C@H]2C[C@H]3[C@@H]4CC[C@H]5C[C@H](O)[C@@H](N6CCOCC6)C[C@]5(C)[C@@H]4CC[C@]3(C)[C@H]2OC(C)=O)CCCC1
    -2% | .
8) COc1ccc(Br)cc1CNC(=O)c1cc(=O)[nH]c2ccc(S(=O)(=O)N3CCCC3)cc12
    -4% | -25%
9) CCC(C)NC(=O)c1cnn(-c2ccc(Cl)cc2)c1C1CCN(C(=O)OC(C)(C)C)CC1 (configuration not stated)
    -5% | 18%
10) Cc1cc(C)c(NS(=O)(=O)c2cc(-c3cnc(C4CC4)o3)ccc2C)c(C)c1
    -26% | -6%
11) Cc1ccc(NC(=O)c2ccc(NC(=O)N3CCSc4ncccc43)cc2)cc1Cl
    ? | ?
12) Cc1ccc2oc(=O)c3cc(C(=O)Nc4ccccc4C(N)=O)sc3c2c1
    -5% | 2%
13) CCc1cccc(NC(=O)Nc2ccc3c(c2)N(C)C(=O)c2ccccc2S3)c1
    32µM* | ?
14) CCC(C)NC(=O)Cn1c(=O)n(CCCCCC(=O)Nc2ccccc2)c(=O)c2sccc21 (configuration not stated)
    22% | -8%
15) COc1cccc(CNC(=O)c2ccc3c(c2)sc2nc(-c4ccccc4)cn23)c1OC
    -3% | -22%
16) CCC1=C(c2ccc(C)cc2)S(=O)(=O)N=C1N1CCC(C(=O)N2CCCCC2)CC1
    ? | -16%
17) CCOC(=O)c1ccc(NC(=O)CN2C(=O)COc3ccc(Cl)cc32)cc1
    -16% | -13%
18) Cc1ccc2nc(-c3cccc(NC(=O)CSc4ccc(Cl)cc4)c3)oc2c1
    29% | -5%
19) Cc1ccc(C)c(N2CCN(C(=O)c3cc4c(=O)n(Cc5cccs5)ccc4nc3C)CC2)c1
    ? | 1%
20) COc1ccc(-n2c(SCCC(C)C)nc3sc4c(c3c2=O)CC(C(C)C)OC4)cc1 (configuration not stated)
    -1% | -18%

Brought forward from above: 6 entries, then new ones.
Fields: HTT prom inh | PMP22 txn prim
15) COc1cccc(CNC(=O)c2ccc3c(c2)sc2nc(-c4ccccc4)cn23)c1OC
    -3% | -22%
16) CCC1=C(c2ccc(C)cc2)S(=O)(=O)N=C1N1CCC(C(=O)N2CCCCC2)CC1
    ? | -16%
17) CCOC(=O)c1ccc(NC(=O)CN2C(=O)COc3ccc(Cl)cc32)cc1
    -16% | -13%
18) Cc1ccc2nc(-c3cccc(NC(=O)CSc4ccc(Cl)cc4)c3)oc2c1
    29% | -5%
19) Cc1ccc(C)c(N2CCN(C(=O)c3cc4c(=O)n(Cc5cccs5)ccc4nc3C)CC2)c1
    ? | 1%
20) COc1ccc(-n2c(SCCC(C)C)nc3sc4c(c3c2=O)CC(C(C)C)OC4)cc1 (configuration not stated)
    -1% | -18%
21) Cc1ccc(C)c(N2CCN(C(=O)CN3C(=O)COc4ccc(S(=O)(=O)N5CCCC5)cc43)CC2)c1
    -13% | ?
22) NC(=S)N/N=C/c1cccnc1
    10% | .
23) O=C(CCn1cnnn1)Nc1ccc(F)cc1
    68%[activator] | 10%
24) Cc1ccc(C)c(NC(=O)Cn2c(=O)n(Cc3ccc4c(c3)OCO4)c(=O)c3oc4ccccc4c32)c1
    -16% | ?
25) Cn1ccnc1SCC(=O)Nc1cc(Cl)ccc1Cl
    -18% | 3%
26) Cc1cc(C)c(NC(=O)C2CCCN(S(=O)(=O)c3c(C)noc3C)C2)c(C)c1 (configuration not stated)
    -18% | -27%
27) CCc1ccc(NC(=O)C2CCCN(S(=O)(=O)c3cccc4cccnc34)C2)cc1 (configuration not stated)
    ? | ?
28) CCCCN(C)CCCNC(=O)CN1C(=O)COc2ccc(S(=O)(=O)N3CCC(C)CC3)cc21
    -13% | -1%
29) COc1ccc(-c2ccc(=O)n(CC(=O)NCCc3ccccc3)n2)cc1
    10% | 8%
30) CCOc1ccc(CNCCSc2nnnn2C)cc1
    -10% | -18%
31) Cc1cccc(C)c1Nc1sc(C(=O)c2ccccc2)c(N)c1S(=O)(=O)c1ccccc1
    ? | 6.7µM*
32) CN(C)c1ccc(NC(=O)CSC2=Nc3ccccc3C3=NC(CCC(=O)NCc4cccs4)C(=O)N23)cc1 (configuration not stated)
    -27% | ?
33) COc1ccccc1NC(=O)c1ccc2c(Cl)c3c(nc2c1)CCCC3
    3% | 18%
34) Cc1ccc(Cl)cc1N1CCN(C(=O)c2ccc3nc(N4CCC(C)CC4)sc3c2)CC1
    3.5µM* | ?
35) CS(=O)(=O)c1ncc(N(Cc2ccco2)Cc2cccs2)c(C(=O)Nc2ccccc2F)n1
    ? | -12%
36) CCOc1ccccc1C(=O)Nc1ccc(-n2nncc2-c2ccccc2)cc1
    ? | -11%
37) COC(=O)CCCCCn1c(-c2ccccc2)cn2c3c(=O)n(C)c(=O)n(C)c3nc12
    -2% | ?
38) O=C(COc1cccc(Cl)c1)N1CCC(c2nc3ccccc3o2)CC1
    ? | ?
39) CC1CCCCN1C(=O)CSc1n[nH]c(-c2ccccc2)n1 (configuration not stated)
    41%[activator] | -14%
40) CC(C)NC(=O)CCC(=O)N1Cc2ccccc2Oc2ncccc21
    -1% | -7%
41) COc1ccc(-c2cn3nc(N4CCC(C(=O)Nc5ccc(C)cc5)CC4)sc3n2)cc1
    2% | ?
42) COc1ccc2c(c1)c1c(c(=O)n(-c3ccc(F)c(Cl)c3)c(=O)n1CC(=O)N1CCCC1)n2C
    -4% | -6%
43) Cc1ccc2oc(=O)n(CCNC(=O)Nc3ccc(Cl)cc3)c2c1
    -15% | -13%
44) CCc1nn(CC(=O)NCc2ccc(OC)c(OC)c2)c(=O)c2cc3sc(C)cc3n12
    -8% | -7%
45) Cc1ccc(S(=O)(=O)c2nc(-c3ccc(Cl)cc3)oc2N2CCCCCC2)cc1
    ? | ?
46) COCCNC(=O)c1ccc(Cn2c(SCC(N)=O)nc3ccccc3c2=O)cc1
    -13% | -11%
47) CC1(C(=O)Nc2ncc(Cc3ccc(Br)cc3)s2)Cc2ccccc2C(=O)O1 (configuration not stated)
    ? | ?
48) COc1ccc(-c2nc3n(n2)C(c2ccccc2OC)C(C(=O)Nc2cccnc2)=C(C)N3)cc1 (configuration not stated)
    -6% | 29%
49) CN1CCN(c2nc3c(S(=O)(=O)c4ccccc4)nnn3c3ccsc23)CC1
    -4% | -7%
50) CCOC(=O)c1cc2c(=O)n3ccccc3nc2n(CC2CCCO2)c1=NC(=O)c1ccc(OC)cc1OC (configuration not stated)
    -13% | -18%
51) O=C(CN1C(=O)c2cccnc2Oc2ccc(Cl)cc21)NCCc1ccccc1
    15% | -13%
52) COc1ccc(-c2nnn3c2nc(NCc2ccccc2)c2ccccc23)cc1
    16% | -30%
53) COC(=O)C1=C(C)NC(C)=C(C(=O)OCCCN2CCC(c3ccccc3)(c3ccccc3)CC2)C1c1cccc([N+](=O)[O-])c1 (configuration not stated)
    ? | .
54) Cc1ccc(Cc2c(C)nc3nc(SCC(=O)NCCC(C)C)nn3c2C)cc1
    -7% | ?
55) COCCCNC(=O)CCC(=O)NNc1nc2ccccc2c2nc(-c3ccccc3)nn12
    -7% | 1%
56) CC1CN(C(=O)CCC(=O)NCc2cccs2)c2cc(Cl)ccc2O1 (configuration not stated)
    -29% | -10%
57) Cc1cccc(NC(=O)C2CCC(CNS(=O)(=O)c3ccc(Br)s3)CC2)c1 (configuration not stated)
    -30% | -4%
58) Cc1cccc(-c2nc(SCCCOc3ccc(Cl)c(C)c3)n3[nH]c(=O)cc3n2)c1
    -25% | ?
59) Cc1ccc(OCCSc2nc3ccccc3n2CC(=O)N2CCOCC2)cc1C
    -20% | ?
60) CC(=O)Nc1nonc1-c1nnc(SCC(=O)Nc2cc(C)cc(C)c2)n1C
    -10% | -5%
61) O=C(Nc1cc(C(F)(F)F)ccc1Cl)c1cc2nc(-c3ccc4c(c3)OCO4)cc(C(F)(F)F)n2n1
    1%[11.5 µM] | 18%
62) COc1cccc(N(Cc2nnc3n2CCCCC3)C(=O)Nc2cccc(Cl)c2)c1
    -14% | 16%
63) CCN(CC)c1ccc(NC(=O)CCS(=O)(=O)c2cccc3nsnc23)c(C)c1
    -4% | ?
64) CCOC(=O)c1cc(S(=O)(=O)Nc2ccc(OC(F)(F)F)cc2)[nH]n1
    -7% | -26%
65) CCc1nnc(SCC(=O)Nc2ccccc2Cl)nc1CC
    -23% | ?
66) COc1ccc(CNc2oc(/C=C/c3cccc(OC)c3)nc2C#N)cc1
    -15% | -57%
67) C[C@]1(CO)CN(c2cc(C(=O)Nc3ccc4c(c3)-c3c(c(C(N)=O)nn3-c3ccc(F)cc3)CC4)c(Cl)cn2)C[C@@]1(C)CO
    ? | .
68) Oc1ccc(Cl)cc1C1=Nc2ccccc2N=C(c2cccc(Br)c2)C1
    0% | 2%
69) Cc1cc(C)c(NC(=O)C2CCCN(C(=O)c3cnn(-c4ccccc4)c3-n3cccc3)C2)c(C)c1 (configuration not stated)
    ? | ?
70) CCC(=O)N1CCc2cc(Br)cc(S(=O)(=O)N3CCC(C(=O)NCCCOC(C)C)CC3)c21
    13% | -16%
71) CCOC(=O)c1[nH]c2ccccc2c1NC(=O)c1ccc(C)c(C)c1
    10% | -90%
72) COCC(=O)Nc1cccc(-c2nc3cccnc3s2)c1
    17% | 1%
73) CCOc1ccc(S(=O)(=O)NCC(c2ccc(N(C)C)cc2)N2CCCC2)cc1 (configuration not stated)
    0% | -11%
74) Cc1ccc(CNC(=O)C2CCN(S(=O)(=O)c3cn(C)cn3)CC2)cc1
    -20% | 22%
75) Cc1ccc(OCC(=O)Nc2sc3c(c2C(N)=O)CCCC3)c(C(C)(C)C)c1
    -5% | ?
76) CC(C)c1ccc(CNCCSc2nnnn2-c2ccccc2)cc1
    -19% | ?
77) CCCN(C(=O)c1nn(-c2ccc(OC)c(Cl)c2)c(=O)c2c1c1ccccc1n2C)c1ccccc1F
    -6% | -21%
78) COc1ccc(-c2cc(C(F)(F)F)n3nc(C(=O)NCC45CC6CC(CC(C6)C4)C5)cc3n2)cc1
    -5% | 4%
79) CC(C)COc1ccc(C(=O)Nc2ccc(S(=O)(=O)Nc3ncccn3)cc2)cc1
    -9% | 30%
80) CCOC(=O)C1CCN(C(=O)C2CCN(c3nnc(C)c4c(C)n(-c5ccccc5)nc34)CC2)CC1
    14% | 14µM*

Structures above that contain a CF3 group (3):
Fields: HTT prom inh | PMP22 txn prim
61) O=C(Nc1cc(C(F)(F)F)ccc1Cl)c1cc2nc(-c3ccc4c(c3)OCO4)cc(C(F)(F)F)n2n1
    1%[11.5 µM] | 18%
64) CCOC(=O)c1cc(S(=O)(=O)Nc2ccc(OC(F)(F)F)cc2)[nH]n1
    -7% | -26%
78) COc1ccc(-c2cc(C(F)(F)F)n3nc(C(=O)NCC45CC6CC(CC(C6)C4)C5)cc3n2)cc1
    -5% | 4%

(cont.)
Fields: HTT prom inh | PMP22 txn prim
81) Cc1ccc(OCC(=O)NCC(=O)OCc2cc(=O)n3nc(CC(C)C)sc3n2)cc1
    -6% | -9%
82) C=CCc1ccccc1OCCn1c(C2CC(=O)N(Cc3ccc(F)cc3)C2)nc2ccccc21 (configuration not stated)
    ? | ?
83) Cn1c(=O)c2c(ncn2Cc2ccc(Cl)cc2)n(C)c1=O
    ? | ?
84) COc1ccc(NC(=O)CN2CCCN(S(=O)(=O)c3ccc(Br)cc3)CC2)c(OC)c1
    ? | ?
85) COc1cc(C(=O)NCC(c2ccco2)S(=O)(=O)c2cccs2)cc(OC)c1OC (configuration not stated)
    -23% | -6%
86) Cc1cccc(C)c1N1CC(c2nc3ccccc3n2CC(=O)OC(C)C)CC1=O (configuration not stated)
    -22% | 11%
87) COc1cc(S(N)(=O)=O)cc(C(=O)O)c1OC
    -1% | .
88) C[C@]12CCC(=O)C=C1CC[C@@H]1[C@@H]2[C@@H](O)C[C@@]2(C)[C@H]1CC[C@]2(O)C(=O)COC(=O)CCC(=O)O
    -7% | .
89) O=C(COCc1cc(-c2ccco2)on1)Nc1cc(Cl)ccc1O
    -26% | ?
90) O=C(NCc1ccc(Cl)cc1)c1ccc(CSCc2cccc(Cl)c2)o1
    -17% | ?
91) Cc1oc(-c2cccc(Br)c2)nc1Cn1c(SCc2cccc(F)c2)nc2cccnc21
    -25% | -23%
92) COc1ccc(-c2nnc(SCCOc3ccccc3C)o2)cc1OC
    4% | -28%
93) COc1ccc(NC(=O)COCc2cc(-c3ccc4c(c3)OCO4)on2)cc1
    -1% | 3%
94) COc1ccc(NC(=O)CSc2oc(-c3ccc(C)cc3)nc2S(=O)(=O)c2ccc(C)cc2)c(OC)c1
    -17% | 22%

Source: PubChem BioAssay (National Center for Advancing Translational Sciences (NCATS))
